MARV entry inh: Marburg virus entry inhibition; Marburg virus pseudotyped entry inhibition, cell reporter; control for the full effect not named in the record; about a third of the inactives were read at about 46 µM; Potency, µM (doses to about 37.8 µM), inactives show at the highest dose activity change, negative = inhibition, most hits filed as inhibitors; 300,000 compounds, 1.8% hits; AID 540276; active = well fitted inhibition curve with a large enough effect; inconclusive = small, poorly fitted or top-dose-only effect, or effect the other way; inactive = flat fitted curve, though single readings scatter; tested in HEK293 cells; about a fifth of its hits are not listed in these tables; note: % is set by controls: 0 for no effect and ±100 for the full control effect; luciferase read-out
StopGo reporter: lowers the luciferase signal of an FMDV 2A StopGo reporter. human cells with a luciferase reporter of 2A StopGo recoding; control for the full effect not named in the record. Potency, µM (doses to about 57.9 µM), for inactives: at the highest dose signal change, negative = less light. 410,000 compounds, 1.2% hits; active = well fitted falling curve with a large enough effect; inconclusive = small, poorly fitted or top-dose-only effect; inactive = no such curve, though single readings can be large or run the other way; tested in HEK293T cells; note: % is set by controls: 0 for no effect and ±100 for the full control effect; nearly all actives have a fitted effect of over 45% in size; luciferase light after 4 h
RE007 growth inh: less growth of the S. pombe RE007 Vpr strain. 360,000 compounds, 0.21% hits. Potency, µM (doses to about 92.2 µM), inactives show at the top dose activity change, negative = less growth. AID 651644. S. pombe RE007 Vpr strain, BacTiter-Glo ATP luminescence, 24 h; control for the full effect not named in the record; active = well fitted falling curve with a large enough effect; inconclusive = small, poorly fitted or top-dose-only effect; inactive = no such curve, though single readings can be large or run the other way;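 note: % is set by controls: 0 for no effect and ±100 for the full control effect; nearly all actives have a fitted effect of over 50% in size; the assay follows cell death caused by Vpr and the record does not say whether a fall means rescue or toxicity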
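Fission yeast strain RE007, carrying one chromosomally integrated HIV-1 vpr copy, was seeded at OD 0.01 in PMG+AL medium with 23 nL pinned compound. After 24 h at 30 °C and 99% humidity, viability was read by BacTiter-Glo luminescence.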
NS1 inh: inhibitors of influenza NS1 protein function | 270,000 compounds, 0.4% hits | Potency, µM (highest dose often 46.1 µM), for the others: at the top dose activity, positive = more growth | S. cerevisiae slowed by influenza A NS1, growth recovery by OD600; active means well fitted rising curve with a large enough effect; inconclusive means small, poorly fitted or top-dose-only effect; inactive means no such curve, though single readings can be large or run the other way; note: nearly all actives have a fitted effect of over 50% in size
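OD600 was taken as the measure of yeast growth restored by compound in an NS1-expressing S. cerevisiae strain. Cells had been washed out of glucose medium and diluted 1:100 into galactose -URA medium, pH 6.0.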
SARS PLpro yeast: blocks SARS-CoV papain-like protease in a yeast assay; Potency, µM (titrated, usually from 32.9 µM), inactives show top-dose activity, positive = growth rescue; 330,000 compounds, 0.19% hits; AID 485353; S. cerevisiae expressing SARS-CoV PLpro, growth rescue; control for the full effect not named in the record; active means well fitted rising curve with a large enough effect; inconclusive means small, poorly fitted or top-dose-only effect; inactive means no such curve, though single readings can be large or run the other way; note: 0% is about no effect; nearly all actives have a fitted effect of over 55% in size; growth read by luminescence after 48 h
LASV entry inh: blocks Lassa virus binding to or entry into cells; Potency, µM (top dose mostly 37.9 µM), for inactives: at the highest dose activity change, negative = inhibition, hits mostly inhibitors; Lassa virus pseudotype entry inhibition, cell reporter; control for the full effect not named in the record; AID 540256; 300,000 compounds, 1.2% hits; active means well fitted inhibition curve with a large enough effect; inconclusive means small, poorly fitted or top-dose-only effect, or effect the other way; inactive means flat fitted curve, though single readings scatter; tested in HEK293 cells; note: % is set by controls: 0 for no effect and ±100 for the full control effect; nearly all actives have a fitted effect of over 50% in size; luciferase read-out
Cruzain inh noDet: blocks cruzain activity in detergent-free assay; P25779; purified cruzain, Z-FR-AMC fluorescence, no detergent; Potency, µM, inactives show max response, negative = inhibition, actives largely listed as inhibitors; 200,000 compounds, 2.3% hits; AID 1476;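 note: plate controls were enzyme without inhibitor for no effect and buffer without enzyme for full effect; nearly all actives have a fitted effect of over 40% in size; top concentration of the series not given in the record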
Target sequence (P25779 123-467 limits assumed): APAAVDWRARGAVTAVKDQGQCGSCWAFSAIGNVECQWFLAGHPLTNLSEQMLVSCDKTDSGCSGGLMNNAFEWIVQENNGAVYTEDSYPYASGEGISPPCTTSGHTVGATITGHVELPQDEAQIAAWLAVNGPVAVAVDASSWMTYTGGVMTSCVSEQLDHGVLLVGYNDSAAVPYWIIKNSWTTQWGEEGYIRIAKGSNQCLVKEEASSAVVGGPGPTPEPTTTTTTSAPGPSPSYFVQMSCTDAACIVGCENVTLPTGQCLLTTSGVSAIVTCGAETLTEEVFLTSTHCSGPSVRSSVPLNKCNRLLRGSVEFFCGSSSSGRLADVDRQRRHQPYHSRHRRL
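Detergent-free condition (0.00005% Triton X-100) in acetate buffer pH 5.5 with DTT. 1.5 nM enzyme and compound were pre-mixed 15 min, then 2 uM Z-FR-AMC substrate added; reaction progress from fluorescence change between first and third reads (60 s).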
Cruzain inh Det: inhibitors of Trypanosoma cruzi cruzain with detergent; P25779; purified cruzain, Z-FR-AMC fluorescence, 0.01% Triton; Potency, µM, inactives show max response, negative = inhibition, actives largely listed as inhibitors; 200,000 compounds, 0.43% hits;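 note: plate controls were neutral wells for no effect and buffer without enzyme for full effect; nearly all actives have a fitted effect of over 40% in size; top concentration of the series not given in the record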
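Steps: dispense cruzain (1.5 nM final) in acetate buffer pH 5.5 with DTT and 0.01% Triton X-100; pin-transfer compounds; incubate 15 min RT; add Z-FR-AMC (2 uM final); read fluorescence every 30 s, using the 60 s intensity change.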
* hit, by the source's call; & = joins results of further samples; [ ] = dose if it differs, or a comment. Unless noted, calls come from the whole dose curve; as a rule, active = well fitted curve in the direction sought with a large enough effect; inconclusive = small, poorly fitted or top-dose-only effect, or another doubt; inactive = no such curve, though single readings can be large; an effect the other way counts as inactive or inconclusive. Potency is the fitted concentration of half-maximal effect.

What do the screens show for `Cc1cc(=O)oc(C)c1C(=O)OCC(=O)c1ccccc1`?
MARV entry inh: 0%; StopGo reporter: 23%; RE007 growth inh: 1%; NS1 inh: -11%; SARS PLpro yeast: 6%; LASV entry inh: -10%; Cruzain inh noDet: -2%; Cruzain inh Det: 1.8%

Results for COc1ccccc1NC(=O)CCNC(=O)c1ccc(C)cc1 ?
StopGo reporter: -11%; RE007 growth inh: 3%; NS1 inh: 22%; SARS PLpro yeast: 4%

What do the screens show for `O=C(C1CCC1)N1CCN(S(=O)(=O)c2cc(F)ccc2F)CC1`?
MARV entry inh: -2%; StopGo reporter: -7%; RE007 growth inh: 11%; SARS PLpro yeast: 0%; LASV entry inh: 6%

How did CCOC(=O)C1=C(C)N=c2s/c(=C\c3cc(OC)c(OC)c(OC)c3)c(=O)n2C1/C=C/c1ccccc1 (stereo not given) do in these assays?
MARV entry inh: -1%; StopGo reporter: -1%; RE007 growth inh: 6%; NS1 inh: 13%; SARS PLpro yeast: -19%; LASV entry inh: inconclusive; Cruzain inh noDet: 13%; Cruzain inh Det: -2.9%

How did CC1(C)CC(=O)C=C(NC2CCCCCCC2)C1 do in these assays?
MARV entry inh: -9%; StopGo reporter: 7%; RE007 growth inh: 23%; NS1 inh: 6%; SARS PLpro yeast: 11%; LASV entry inh: 15%; Cruzain inh noDet: 7%; Cruzain inh Det: -1.2%

What do the screens show for `O=C(Nc1nc(-c2ccccn2)cs1)C1CC1`?
MARV entry inh: 4%; StopGo reporter: 0%; RE007 growth inh: 8%; NS1 inh: -5%; SARS PLpro yeast: inconclusive; LASV entry inh: inconclusive; Cruzain inh noDet: 10%; Cruzain inh Det: 1.6%

What do the screens show for `COc1ccc(C(=O)C2CCN(C(=O)c3ccc(C)cc3)CC2)cc1`?
MARV entry inh: inconclusive; StopGo reporter: 0%; RE007 growth inh: 5%; NS1 inh: -3%; SARS PLpro yeast: -11%; LASV entry inh: inconclusive; Cruzain inh noDet: 7%; Cruzain inh Det: -0.7%

How did Cc1ccc(-c2noc(CCC(=O)N(C)c3ccccc3C)n2)cc1 do in these assays?
MARV entry inh: -5%; StopGo reporter: inconclusive; RE007 growth inh: -6%; NS1 inh: -42%; SARS PLpro yeast: -17%; LASV entry inh: inconclusive; Cruzain inh noDet: 14%; Cruzain inh Det: -1.9%

How did Cc1noc(C)c1COc1ccc(C(=O)NCCc2ccc(S(N)(=O)=O)cc2)cc1 do in these assays?
MARV entry inh: 12%[46.1 µM]; StopGo reporter: inconclusive; RE007 growth inh: -11%; SARS PLpro yeast: 2%; LASV entry inh: inconclusive

How did CCOC(=O)c1cc(CO)cc(C(=O)OCC)c1 do in these assays?
MARV entry inh: -4%; StopGo reporter: -13%; RE007 growth inh: -5%; NS1 inh: 0%; SARS PLpro yeast: -1%; LASV entry inh: -2%

What do the screens show for `Fc1cccc(Cl)c1/C=N/n1c(-c2cccnc2)n[nH]c1=S`?
MARV entry inh: 18%; StopGo reporter: -15%; RE007 growth inh: 0%; SARS PLpro yeast: 6%; LASV entry inh: 0%

How did Brc1ccc(CSc2nnc(Cc3c[nH]c4ccccc34)o2)cc1 do in these assays?
MARV entry inh: -11%; StopGo reporter: -8%; RE007 growth inh: -7%; NS1 inh: -10%; LASV entry inh: -26%; Cruzain inh noDet: -8%; Cruzain inh Det: -3.5%

What do the screens show for `COc1cccc2c1OC[C@@H](CO)[C@H]2N(C)C(=O)Nc1ccc(Cl)cc1`?
MARV entry inh: 11%; StopGo reporter: inconclusive; RE007 growth inh: 10%; NS1 inh: 6%; SARS PLpro yeast: -1%; LASV entry inh: -1%; Cruzain inh noDet: 0%; Cruzain inh Det: -0.8%

How did CCCN(CCC)C(=O)Cn1c(=O)n(-c2ccc(Cl)c(Cl)c2)c(=O)c2c(C)c(C(=O)N(C)C)sc21 do in these assays?
StopGo reporter: -6%; LASV entry inh: 15%[46.1 µM]; Cruzain inh noDet: -7%; Cruzain inh Det: 2.5%

Results for CCn1cc(C(=O)NN)c(=O)c2cc(F)c(NC3CCCCC3)cc21 ?
StopGo reporter: 0%; RE007 growth inh: -12%; NS1 inh: 17%; SARS PLpro yeast: -1%

How did O=S(=O)(c1cccc(-c2nc3ccccc3s2)c1)N1CCCC1 do in these assays?
MARV entry inh: inconclusive; StopGo reporter: -14%; RE007 growth inh: -3%; NS1 inh: 9%; SARS PLpro yeast: -2%; LASV entry inh: -8%; Cruzain inh noDet: 6%; Cruzain inh Det: -6.8%

How did CCOc1ccc(OCCC(=O)OCC(=O)NCc2ccc(Cl)cc2)cc1 do in these assays?
MARV entry inh: 12%; StopGo reporter: 1%; RE007 growth inh: 1%; SARS PLpro yeast: 0%; LASV entry inh: 16%

What do the screens show for `O=C(Nc1ccc(NC(=O)N2CCN(c3ccccc3O)CC2)cc1)N1CCN(c2ccccc2O)CC1`?
MARV entry inh: -1%[46.1 µM]; StopGo reporter: 1%; RE007 growth inh: 6%; NS1 inh: -40%; SARS PLpro yeast: 0%; LASV entry inh: inconclusive

How did Cc1cc(C)n(-c2ccc(C(=O)OCC(=O)NCc3ccc(F)cc3)cc2)n1 do in these assays?
MARV entry inh: 20%; StopGo reporter: -4%; RE007 growth inh: 5%; NS1 inh: -11%; SARS PLpro yeast: inconclusive; LASV entry inh: 7%; Cruzain inh noDet: -2%; Cruzain inh Det: -2.7%

What do the screens show for `Cc1c(-n2c(SCC(=O)NC(C)C(C)C)nc3ccccc3c2=O)c(=O)n(-c2ccccc2)n1C` (stereo not given)?
MARV entry inh: inconclusive; StopGo reporter: -1%; RE007 growth inh: -10%; SARS PLpro yeast: 2%; LASV entry inh: 0%[46.1 µM]

How did CNC(=O)Nc1cccc(NC(=O)NC)n1 do in these assays?
MARV entry inh: -19%&-19%[46.1 µM]; StopGo reporter: 40%[activator]; RE007 growth inh: 26%; NS1 inh: 10%; SARS PLpro yeast: 4%; LASV entry inh: -13%; Cruzain inh noDet: 4%; Cruzain inh Det: 1.9%

How did O=C1CCCN1CCC1CCCCN1Cc1nc(COc2ccccc2)no1 (stereo not given) do in these assays?
MARV entry inh: 4%[46.1 µM]; StopGo reporter: -6%; RE007 growth inh: -4%; NS1 inh: 0%; SARS PLpro yeast: 0%; LASV entry inh: 3%

How did c1cc2nnnn2nc1N1CCCCC1 do in these assays?
MARV entry inh: 0%; RE007 growth inh: -7%; NS1 inh: -1%; SARS PLpro yeast: 5%; LASV entry inh: 5%; Cruzain inh noDet: 10%; Cruzain inh Det: 1.3%

How did CCn1c(CSc2nc3ccccc3s2)n[nH]c1=S do in these assays?
MARV entry inh: -5%; StopGo reporter: -1%; RE007 growth inh: -7%; NS1 inh: -4%; SARS PLpro yeast: inconclusive; LASV entry inh: 0%; Cruzain inh noDet: -1%; Cruzain inh Det: -4.0%

What do the screens show for `COc1ccc(NC(=O)c2ccco2)cc1NC(=O)COc1cc(C)cc(C)c1`?
MARV entry inh: 3%[46.1 µM]; StopGo reporter: inconclusive; LASV entry inh: inconclusive; Cruzain inh noDet: -1%; Cruzain inh Det: -2.2%

What do the screens show for `COc1cc2c(cc1OC)C(/C(C#N)=N\O)=NC(C)(C)C2`?
MARV entry inh: -23%; StopGo reporter: 0%; RE007 growth inh: 14%; NS1 inh: 0%; SARS PLpro yeast: 4%; LASV entry inh: 12%; Cruzain inh noDet: 2%; Cruzain inh Det: -7.4%

What do the screens show for `CC1CCc2c(sc(NC(=O)c3ccco3)c2C(=O)O)C1` (stereo not given)?
MARV entry inh: 3.5µM*; StopGo reporter: -1%; RE007 growth inh: inconclusive; NS1 inh: -108%; SARS PLpro yeast: -18%; LASV entry inh: inconclusive

Results for O=C(Nc1ccccc1Cl)c1ccccc1Oc1ccc(C(F)(F)F)cc1[N+](=O)[O-] ?
MARV entry inh: inconclusive; StopGo reporter: -22%; RE007 growth inh: 1%; NS1 inh: -78%; SARS PLpro yeast: -30%; LASV entry inh: inconclusive; Cruzain inh noDet: 6%; Cruzain inh Det: -15%

Results for CCCCn1c(N)c(N(Cc2ccccc2OC)C(=O)COc2ccc(F)cc2Cl)c(=O)[nH]c1=O ?
StopGo reporter: -8%; RE007 growth inh: 5%; NS1 inh: -4%; SARS PLpro yeast: -3%

Results for Cc1cc(C)c(C)c(S(=O)(=O)N2CCN(CC(=O)Nc3ccc([N+](=O)[O-])cc3)CC2)c1C ?
MARV entry inh: 14%; StopGo reporter: 3%; RE007 growth inh: -3%; NS1 inh: 9%; SARS PLpro yeast: -6%; LASV entry inh: inconclusive; Cruzain inh noDet: -21%; Cruzain inh Det: -1.4%

What do the screens show for `CCCn1nnnc1SCC(=O)N1CCCc2ccccc21`?
MARV entry inh: 1%[46.1 µM]; StopGo reporter: 18%; RE007 growth inh: 16%; NS1 inh: -2%; SARS PLpro yeast: 3%; LASV entry inh: inconclusive; Cruzain inh noDet: 4%; Cruzain inh Det: 1.5%

How did Cc1ccc(C)c(NC(=O)c2nc(-c3ccccc3)n(-c3ccccc3)n2)c1 do in these assays?
MARV entry inh: -26%; StopGo reporter: inconclusive; RE007 growth inh: 1%; NS1 inh: -4%; SARS PLpro yeast: 7%; LASV entry inh: -30%; Cruzain inh noDet: 5%; Cruzain inh Det: -10%

What do the screens show for `Cc1ccc(NC(=O)CS(=O)CC(=O)Nc2cccc(C)c2C)cc1F` (stereo not given)?
MARV entry inh: -12%; StopGo reporter: 5%; RE007 growth inh: 1%; NS1 inh: 1%; SARS PLpro yeast: -2%; LASV entry inh: 2%; Cruzain inh noDet: -9%; Cruzain inh Det: 1.8%

How did O=C(O)C(CCCCN1C(=O)c2ccccc2C1=O)N1C(=O)c2ccccc2C1=O (stereo not given) do in these assays?
MARV entry inh: 5%; StopGo reporter: 8%; RE007 growth inh: 31%; NS1 inh: 7%; SARS PLpro yeast: 2%; LASV entry inh: -4%; Cruzain inh noDet: 2%; Cruzain inh Det: 4.6%

How did COc1ccc(OC)c(NC(=O)CCN2CCN(Cc3ccccc3)CC2)c1 do in these assays?
MARV entry inh: -6%; StopGo reporter: -18%; RE007 growth inh: -1%; NS1 inh: -7%; SARS PLpro yeast: 2%; LASV entry inh: -3%; Cruzain inh noDet: -3%; Cruzain inh Det: 2.3%

How did CC(Nc1cccc(F)c1)C(=O)Nc1ccc(S(N)(=O)=O)cc1 (stereo not given) do in these assays?
MARV entry inh: -9%[46.1 µM]; StopGo reporter: -12%; RE007 growth inh: -10%; SARS PLpro yeast: 0%; LASV entry inh: 7%

Source: PubChem

Compounds as they come, and some 4.7% of all compounds hit somewhere here.
